Bioassay records: PubChem, Broad Institute
rRNA inh HTS = inhibits bacterial ribosomal RNA function over humanized ribosomes; E. coli WT GFP vs humanized-ribosome RFP mutants, fluorescence, 24 h; active compounds read low; DMSO median 0, no signal -100; GFP signal change (wild-type ribosome), % (test concentration not listed); hit rate 1.6% among 350,000;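 active = significant combined selectivity score with lowered wild-type GFP, culture density cut under 30%, mutant RFP and density less affected; inactive = any of these conditions unmet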; also: one replicate is shown; some compounds called inactive have numbers as strong as hits
FGF22 binding = binders of recombinant human FGF22 by thermal shift; hit rate 1.5% among 340,000; SYPRO orange fluorescence; percent of sucrose octasulfate shift, DMSO zero; calls only at 9.99 µM; Q9HCT0;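 active = melting point raised past a set limit in the mean and every replicate; inconclusive = no clear call; three in four hits are not shown here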
Target sequence (Q9HCT0 whole entry, looked up): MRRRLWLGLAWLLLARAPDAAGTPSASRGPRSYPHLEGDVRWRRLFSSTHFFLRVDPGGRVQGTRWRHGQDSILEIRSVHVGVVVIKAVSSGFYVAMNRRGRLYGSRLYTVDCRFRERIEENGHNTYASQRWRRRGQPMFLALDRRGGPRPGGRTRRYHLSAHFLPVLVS
Calb FLC = affects C. albicans growth with fluconazole. AID 1979. growth inhibition, % (test concentration not listed). C. albicans CaCi-2 (fluconazole-resistant clinical isolate) + fluconazole, Alamar Blue growth, 48 h. hit rate 0.57% among 300,000;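 active = most replicates above 75%; inconclusive = exactly half above 75%; inactive = most below 75%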;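 also: all wells also contain fluconazole at 8 µg/ml as a sub-toxic cotreatment; 0% = median of DMSO wells and 100% = median of geldanamycin control wells; wells of about 8 µL received 7.5 nL stock; the first replicate is given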
ALR inh = human ALR oxidase inhibition via reduced H2O2. P55789. purified ALR, DTT oxidation, H2O2 HRP-luminol luminescence. inhibition, % (test concentration not listed). hit rate 3.8% among 290,000;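 active = mean and each replicate at 75% or more; inconclusive = only one of the two met; inactive = neither met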;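 also: stock transfer was 7.5 nL into about 7.5 µL; 0% = neutral wells and 100% = wells with inactivated enzyme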
Target sequence (P55789 whole entry, looked up): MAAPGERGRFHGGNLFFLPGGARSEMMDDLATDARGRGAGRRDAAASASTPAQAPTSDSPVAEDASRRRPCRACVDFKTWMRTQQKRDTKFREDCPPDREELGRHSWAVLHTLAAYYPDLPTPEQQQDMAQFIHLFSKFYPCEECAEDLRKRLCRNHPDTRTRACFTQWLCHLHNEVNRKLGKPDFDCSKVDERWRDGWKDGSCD
RanGTP-Imp inh = inhibitors of RanGTP-importin-beta interaction, primary screen, biochemical, FRET, CFP-Ran, YFP-importin-beta, homogeneous | inhibition, % (no concentration beside the values) | cell-free CFP-Ran/YFP-importin-beta FRET ratio | AID 2216 | hit rate 1.1% among 300,000;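 active = most replicates above 15%; inconclusive = exactly half above 15%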;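 also: 0% = DMSO wells and 100% = Ran loaded with GDP instead of GTP; wells of about 40 µL received 100 nL stock; the first replicate is given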
T cruzi repl = T. cruzi replication inhibition | T. cruzi beta-gal in NIH3T3, luminescence, 90 h | inhibition, % (test concentration not listed) | hit rate 1.4% among 300,000;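 active = mean inhibition across valid replicates above about 55%, limit read from the data; inconclusive = mean below that limit but half or more replicates reach it; inactive = mean below it, under half of replicates reach it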;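 also: signal also drops with host cell toxicity which is not excluded here; 0% = plate median of DMSO wells and 100% = zero luminescence signal; higher percent means less beta-gal luminescence so fewer parasites; stock transfer was 50 nL into about 50 µL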
MLL AF4-AF9 inh = blocks AF4 peptide binding to human AF9; P42568; hit rate 0.47% among 350,000; inhibition, % at 10 µM; AlphaScreen, biotin-AF4 peptide binding to FLAG-AF9;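 active = every replicate reaching a set inhibition limit, whatever the replicate mean, cut at about 25% in these data; inconclusive = mean inhibition reaches that limit but some replicates miss it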;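 also: 0% = plate neutral control median and 100% = total signal loss; the record names both 10 and 1 µM as test concentration; the first replicate is given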
Target sequence (P42568 whole entry, looked up): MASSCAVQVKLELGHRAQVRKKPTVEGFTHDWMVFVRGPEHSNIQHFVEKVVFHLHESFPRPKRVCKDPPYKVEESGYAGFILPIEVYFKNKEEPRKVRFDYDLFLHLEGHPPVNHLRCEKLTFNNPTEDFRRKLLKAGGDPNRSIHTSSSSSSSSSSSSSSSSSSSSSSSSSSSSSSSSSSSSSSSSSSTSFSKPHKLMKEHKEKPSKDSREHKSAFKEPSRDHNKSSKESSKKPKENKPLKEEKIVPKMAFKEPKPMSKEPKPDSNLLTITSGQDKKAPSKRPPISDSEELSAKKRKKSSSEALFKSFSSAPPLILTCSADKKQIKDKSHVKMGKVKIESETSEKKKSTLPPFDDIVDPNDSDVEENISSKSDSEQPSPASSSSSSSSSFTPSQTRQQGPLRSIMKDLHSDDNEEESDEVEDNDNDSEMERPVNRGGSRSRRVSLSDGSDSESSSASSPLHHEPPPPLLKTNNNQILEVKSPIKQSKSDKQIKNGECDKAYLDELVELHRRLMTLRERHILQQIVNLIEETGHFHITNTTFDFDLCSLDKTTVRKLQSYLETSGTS
Beta apoptosis = beta cell apoptosis inhibition | INS-1E cytokine-induced death, ATP luminescence, 48 h; percent of positive-control rescue, neutral wells zero | AID 435005 | protection from apoptosis, % (concentration not given with the values) | hit rate 0.8% among 300,000;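 active = all replicates at 75% or more, or half of them and the mean; inconclusive = half reach 75% but not the mean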;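 also: 0% = cytokine-treated negative control wells and 100% = positive control rescue; higher means more ATP so stronger rescue from cytokine killing; wells of about 40 µL received 100 nL stock; the first replicate is given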
rRNA inh HTS OD600 = also measured in rRNA inh HTS; calls as there; OD600 change, %; measured here: OD600 growth;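 optical density of the mix in the first replicate; 0 = DMSO median and -100 = no signal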
rRNA inh HTS RFP = also measured in rRNA inh HTS; calls as there; RFP signal change, %; measured here: RFP humanized mutant strains;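 first replicate; 0 = DMSO median and -100 = no signal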
* marks the source's active call; other numbers are inactive results; i = inactive; ? = inconclusive; / = not tested or not shown. Only part of the results is shown. The share of hits here may be higher or lower than overall.

Each structure is followed by: rRNA inh HTS, rRNA inh HTS OD600, rRNA inh HTS RFP, FGF22 binding, Calb FLC, ALR inh, RanGTP-Imp inh, T cruzi repl, MLL AF4-AF9 inh, Beta apoptosis
- COc1ccc2c(c1OC)C(=O)N1c3ccccc3C(=O)N(c3ccccc3F)C21 (stereo not drawn)
    /, /, /, /, -5.1, -8.9, -6.1, -1.7, /, 0.8
- O=C1S/C(=C/c2ccc(N3CCOCC3)o2)C(=O)N1Cc1ccc(F)cc1
    /, /, /, /, -3.6, 18.1, -9.1, 44.7, /, -4.8
- Cc1ccc(OCCN(C)C(=O)C2CCC(=O)N(CCCN3CCOCC3)C2)cc1 (stereo not drawn)
    0.0, 3.1, 0.5, i, -7.9, 2.5, 5.7, 6.3, -5.7, -5.4
- O=[N+]([O-])c1cccc(Nc2c3ccccc3nc3ccccc23)c1
    4.5, 1.0, -10.7, i, 7.8, -6.1, 0.2, 40.0, 8.9, 6.2
- COc1cc(-c2[nH]ncc2CN2CCN(c3cccc(C)n3)CC2)cc(OC)c1OC
    -0.5, -1.3, -5.6, i, -6.1, /, -0.5, 19.7, -8.4, -1.3
- CC(=O)Nc1ccc(OCC(=O)NC(C)c2ccc(F)cc2)cc1 (stereo not drawn)
    13.9, 3.4, -1.2, i, -8.7, -20.7, 2.0, -7.3, -1.2, -4.5
- O=C(CN(C(=O)CCC(=O)Nc1nccs1)c1ccc(F)cc1)NCc1ccco1
    /, /, /, /, -2.2, -2.2, 0.4, 7.8, /, 2.1
- COCCN(Cc1ccccc1)C(=O)c1cccc(S(=O)(=O)N(C)c2c(C)n(C)n(-c3ccccc3)c2=O)c1
    3.3, 6.7, -1.4, i, -5.8, -0.9, -2.1, 2.2, -1.6, -4.0
- CC1CN=C(N(Cc2ccccc2)C(=O)Nc2ccccc2)S1 (stereo not drawn)
    /, /, /, /, 3.3, 1.1, 0.4, -11.4, /, -10.1
- COc1ccccc1NS(=O)(=O)c1cccc(C(=O)NNC(=O)c2ccc(=O)[nH]c2)c1
    3.3, 4.3, 0.4, i, /, 1.7, /, /, 2.4, -1.3
- Cc1ccnc(NC(=O)Cn2cc([N+](=O)[O-])cn2)c1
    -2.9, 5.8, -1.0, i, 13.5, 10.1, 1.1, -17.2, 0.0, -9.1
- COc1ccc(C2(C)CC(=O)NC2=O)cc1 (stereo not drawn)
    8.5, 29.7, -0.1, i, -5.7, -28.2, -0.5, -7.2, -1.2, -1.2
- CC1(C)CC1C(=O)Nc1ccc([N+](=O)[O-])cc1Br (stereo not drawn)
    /, /, /, /, 8.5, -5.4, 1.5, -6.7, /, 0.7
- O=C(Nc1ccccc1N1CCOCC1)c1cnccn1
    /, /, /, /, 0.5, -1.2, -1.6, -1.4, /, -4.8
- O=C(Nc1ccc(-c2csnn2)cc1)C1CC1
    18.4, 18.2, 2.8, i, -11.6, -16.6, 4.5, 3.8, /, -14.0
- O=C(C1CC1)N1CCN(S(=O)(=O)c2ccc3c(c2)OCCO3)CC1
    18.6, 10.7, 1.6, i, -10.8, -5.4, -0.1, -5.7, -1.8, -0.5
- CCOC(=O)[C@@H]1[C@H]2COc3ccccc3[C@H]2N2C(=O)N(c3ccccc3)C(=O)[C@]12C
    /, /, /, /, 0.1, -3.9, 4.1, 9.8, /, -10.0
- O=C(O)c1ccc(S(=O)(=O)c2ccc3c(c2)C(=O)N(NC(=O)c2cccnc2)C3=O)cc1
    9.0, 5.2, -2.4, i, 3.2, -1.4, -5.4, -5.2, -1.4, -6.4
- COc1ccc(NC(=O)C2CCN(C(=O)Nc3ccc(C)cc3)CC2)cc1OC
    1.9, 11.6, 1.6, i, -7.3, -10.4, 1.1, -16.2, 2.0, 1.8
- O=C(Nc1ccc(F)cc1F)c1ccc(-n2cccn2)nc1
    13.2, 1.5, 0.1, i, -4.0, 7.2, -5.3, -9.8, -6.4, -4.5

(listing goes on)
Each structure is followed by: rRNA inh HTS, rRNA inh HTS OD600, rRNA inh HTS RFP, FGF22 binding, Calb FLC, ALR inh, RanGTP-Imp inh, T cruzi repl, MLL AF4-AF9 inh, Beta apoptosis
- O=C(CCl)NC(Cc1ccccc1)c1ccccc1 (stereo not drawn)
    -5.8, -7.6, -1.1, i, -18.2, 8.5, 1.4, 5.0, -2.1, -3.3
- CCOC(=O)c1c(C)nc2cc(C)cc(C)n12
    8.0, 6.0, 0.0, i, -3.2, -24.4, 3.5, -12.4, -1.0, 0.5
- Cc1ccc(SCc2cc(-c3ccc(Cl)cc3)no2)cc1
    /, /, /, /, -0.6, -3.9, -4.6, 0.8, /, -11.5
- CC(=O)NC(=S)Nc1ccc(S(=O)(=O)N2CCOCC2)cc1
    0.0, 0.7, 3.8, i, ?, 5.5, ?, 10.6, -1.8, -6.3
- COc1ccc(-c2cc3cc4c(cc3cn2)OCO4)cc1
    -1.5, 0.6, 4.7, i, /, 0.7, /, /, -1.8, -11.0
- COc1ccc2c(c1OC)C(=O)N(c1cccc(C(F)(F)F)c1)C2
    /, /, /, /, 26.5, 1.1, -1.5, 11.0, /, 5.1
- O=C(Nc1nnc(-c2ccc(Cl)cc2)o1)Nc1ccccc1Cl
    /, /, /, /, 5.8, 0.4, -1.2, -10.9, /, -6.6
- COC(CNC(=S)Nc1ccc([N+](=O)[O-])cc1)OC
    9.6, 7.7, 1.4, i, 1.0, -15.2, 4.6, -13.6, 6.3, -2.7
- Cc1cccc(NC(=O)N2CCC(n3nnc4cc(C)ccc43)CC2)c1
    -15.0, -22.4, -4.8, i, -6.1, 0.8, -1.1, 14.0, -2.4, -2.9
- COC(=O)CN1C(=O)[C@H]2[C@@H](c3ccc(C)o3)N3C(=O)CN(Cc4ccccc4)C(=O)[C@@]3(C)[C@H]2C1=O
    /, /, /, i, -10.1, -2.1, -3.0, -12.5, -3.7, -1.7
- O=C(CCNC(=O)c1ccco1)Nc1ccc(SC(F)F)cc1
    /, /, /, /, -10.8, -6.6, -0.1, -9.3, -2.2, -2.7
- CN1CCN(c2ccccc2NC(=O)c2ccc(Br)o2)CC1
    /, /, /, /, -21.6, 10.1, 0.0, 12.8, /, -5.4
- Cc1cc(=O)oc2cc(OCC#N)ccc12
    4.7, 7.7, -0.1, i, -0.3, -2.7, ?, 0.0, -3.1, 1.5
- CN(CC(=O)Nc1ccc(Cl)c(C(F)(F)F)c1)C(=O)CCNC(=O)c1ccco1
    -6.3, -19.1, 0.1, i, 5.0, -1.9, -3.2, -6.7, 1.1, /
- CN1C(=O)c2ccccc2Sc2ccc(NC(=O)N3CCOCC3)cc21
    -0.4, -1.8, 2.2, i, 2.8, 60.4, 0.2, -8.0, -0.2, 2.9
- COc1cccc2c(=O)c3ccoc3n(C)c12
    -4.5, -11.6, -11.8, i, 4.9, 18.8, 2.4, -3.6, -2.3, 5.6
- Cc1ccccc1Cn1c(-c2cncs2)nc2ccccc21
    /, /, /, /, 7.8, -22.5, 2.3, -12.6, /, -8.3
- Cn1cccc1C(=O)NNC(=O)COc1ccc(C#N)cc1
    3.1, 2.5, 2.2, i, /, -2.7, /, /, -1.8, -0.3
- COc1ccc(C2=CC(=O)C[C@H](c3ccc(F)cc3)C2)c(F)c1F
    -13.8, -13.5, -2.3, i, /, 0.4, /, /, 0.6, -7.8
- CN(C(=O)c1ccc(N2CCCCC2)c([N+](=O)[O-])c1)C1(C)CCS(=O)(=O)C1 (stereo not drawn)
    -1.3, -4.0, -0.2, i, 0.5, -0.6, ?, 12.3, 0.0, 0.7

New compounds follow.
Each structure is followed by: rRNA inh HTS, rRNA inh HTS OD600, rRNA inh HTS RFP, FGF22 binding, Calb FLC, ALR inh, RanGTP-Imp inh, T cruzi repl, MLL AF4-AF9 inh, Beta apoptosis
- COC(=O)c1cc(S(=O)(=O)NCCc2ccc(C)cc2)c[nH]1
    -5.3, -10.9, 0.4, i, -0.4, 0.2, 0.5, -3.1, -9.9, -1.2
- COCCCN(C(C)=O)c1nc(-c2ccccc2)cs1
    -1.9, -4.6, 9.6, /, 8.1, -12.7, -3.8, 12.4, /, -7.3
- O=C(CNC(=O)c1ccco1)NC1CCCCCC1
    2.4, 4.4, -1.8, i, -5.2, /, 2.0, -2.1, -1.9, -1.6
- O=C1c2cccnc2C(Nc2ccc(Br)cc2)N1Cc1cccs1 (stereo not drawn)
    -9.5, -8.3, -1.7, i, -23.2, 35.2, -1.7, 9.8, 0.4, 2.5
- Cc1cc2c(cc1C)NC(c1nc3ccccc3[nH]1)C1=C(CC(C)(C)CC1=O)N2 (stereo not drawn)
    /, /, /, /, 4.3, 35.3, -0.7, 44.6, /, -2.1
- O=C(COc1ncnc2c1cnn2-c1ccccc1)Nc1ccc(S(=O)(=O)N2CCCCC2)cc1
    /, /, /, /, 46.8, /, -1.6, -20.5, /, -3.0
- COc1ccc(-n2c(CNC(=O)c3cccs3)n[nH]c2=S)cc1
    11.9, 11.9, 2.9, /, 5.7, 50.2, -0.9, -0.8, -7.1, -2.9
- Cc1nc2ccccc2n1CCc1nc2c3ccccc3nc(SCC(=O)NCc3ccco3)n2n1
    /, /, /, /, 16.0, -3.5, -4.1, -1.3, /, -0.8
- O=C(Nc1ccc(Cl)cc1Cl)c1n[nH]c(Cn2cncn2)n1
    /, /, /, /, 24.7, 48.2, -2.2, -4.5, /, -3.3
- Cc1ccc(OCCCCn2ccnc2)c(Cl)c1
    -42.8, -73.1, -22.6, i, -30.1, -9.2, 1.4, 61.1*, 8.9, 12.3
- C/C(CC(=O)Nc1ccc(Br)cc1)=N\NC(=O)Cc1csc(N)n1
    -8.5, -3.0, -1.2, i, -5.9, /, 2.0, -4.9, 1.2, /
- Cc1ccc(/C=C/C(=O)N2CCN(c3cccc(C(F)(F)F)c3)CC2)cc1
    -2.6, -2.0, -6.5, i, 15.2, -11.1, 2.6, -15.3, 0.6, -9.2
- O=[N+]([O-])c1nn(-c2ccc3c(c2)OCCO3)n(O)c1=NCCCO
    /, /, /, /, ?, /, -1.1, 76.9*, /, 7.5
- Cc1nn(C)cc1CN(C)C(=O)c1sc2cccc(Cl)c2c1Cl
    /, /, /, /, 25.4, -24.2, 5.6, -10.8, /, -12.4
- CN(C)c1ccc(/C=C(\C#N)C(=O)NCc2ccco2)cc1
    /, /, /, /, -3.5, /, ?, -1.1, /, -5.1
- CCCCNc1nc2c(c(=O)[nH]c(=O)n2C)n1CCOc1ccccc1
    /, /, /, /, -0.7, -38.7, 1.2, 0.4, /, -3.0

A draw from above in order of SMILES length, ascending:
Each structure is followed by: rRNA inh HTS, rRNA inh HTS OD600, rRNA inh HTS RFP, FGF22 binding, Calb FLC, ALR inh, RanGTP-Imp inh, T cruzi repl, MLL AF4-AF9 inh, Beta apoptosis
- O=C(CNC(=O)c1ccco1)NC1CCCCCC1
    2.4, 4.4, -1.8, i, -5.2, /, 2.0, -2.1, -1.9, -1.6
- COCCCN(C(C)=O)c1nc(-c2ccccc2)cs1
    -1.9, -4.6, 9.6, /, 8.1, -12.7, -3.8, 12.4, /, -7.3
- C/C(CC(=O)Nc1ccc(Br)cc1)=N\NC(=O)Cc1csc(N)n1
    -8.5, -3.0, -1.2, i, -5.9, /, 2.0, -4.9, 1.2, /
